FGF22 binding = shifts melting point of recombinant human FGF22; Q9HCT0; recombinant FGF22 thermal shift, SYPRO orange fluorescence; percent of sucrose octasulfate shift, DMSO zero; calls only at 9.99 µM; actives 1.5% (n = 340,000);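 active means melting point raised past a set limit in the mean and every replicate; three in four hits are not shown here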
Target sequence (Q9HCT0 whole entry, looked up): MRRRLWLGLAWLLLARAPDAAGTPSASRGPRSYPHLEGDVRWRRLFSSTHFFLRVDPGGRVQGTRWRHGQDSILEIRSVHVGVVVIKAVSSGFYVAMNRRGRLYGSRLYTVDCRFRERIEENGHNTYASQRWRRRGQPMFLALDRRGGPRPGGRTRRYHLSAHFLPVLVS
Ecoli growth = E. coli growth inhibition. Escherichia coli growth, OD600, 23 h; active compounds read low. OD600 absorbance (concentration not given with the values). actives 0.21% (n = 330,000);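 active means OD600 absorbance below the run mean of sample wells minus 3.6 SD, in any replicate, cut at about 0.56 in these data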;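 further: stock transfer was 300 nL into about 60 µL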
HNF4A DNA FP = change in binding of human HNF4 alpha to DNA; P41235; HNF4a-FITC DNA binding, fluorescence polarization, 1 h; activity change, % at 10 µM; actives 0.3% (n = 360,000); AID 1224865; in the data active means activity change above about 30%, passing the limit was not always enough;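 further: controls were the assay level and a saturating level of protein; the project sought stronger binding though the title names inhibitors; some compounds called inactive have numbers as strong as hits; positive values seem to mean higher polarization but the record does not say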
Target sequence (P41235 whole entry, looked up): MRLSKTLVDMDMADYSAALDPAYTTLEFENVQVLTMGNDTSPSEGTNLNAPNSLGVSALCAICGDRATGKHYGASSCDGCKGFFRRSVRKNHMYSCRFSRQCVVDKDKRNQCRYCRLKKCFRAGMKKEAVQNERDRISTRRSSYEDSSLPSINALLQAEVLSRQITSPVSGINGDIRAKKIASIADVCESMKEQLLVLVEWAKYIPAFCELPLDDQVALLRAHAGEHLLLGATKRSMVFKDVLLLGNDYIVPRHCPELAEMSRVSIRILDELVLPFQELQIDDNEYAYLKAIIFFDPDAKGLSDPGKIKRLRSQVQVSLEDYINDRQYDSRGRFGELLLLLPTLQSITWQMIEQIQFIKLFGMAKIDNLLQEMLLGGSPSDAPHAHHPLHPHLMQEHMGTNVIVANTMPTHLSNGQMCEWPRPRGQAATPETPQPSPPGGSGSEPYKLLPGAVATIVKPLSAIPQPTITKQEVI
rRNA inh HTS = selective bacterial rRNA inhibition in E. coli; E. coli WT GFP vs humanized-ribosome RFP mutants, fluorescence, 24 h; active compounds read low; DMSO median 0, no signal -100; GFP signal change (wild-type ribosome), % (no concentration beside the values); actives 1.6% (n = 350,000);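 active means significant combined selectivity score with lowered wild-type GFP, culture density cut under 30%, mutant RFP and density less affected; inactive means any of these conditions unmet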; further: one replicate is shown; some compounds called inactive have numbers as strong as hits
Beta2AR agonist = human beta-2 adrenergic receptor agonism by FAP; P07550; Am2.2-beta2AR cells, FAP receptor internalization, flow cytometry; reference of the scale not given here; response, % (no concentration beside the values); actives 0.43% (n = 340,000); AID 504454;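 active means response above a set limit, near 3 SD of response in nonfluorescent compounds, cut at about 42% in these data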;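 further: stock transfer was 100 nL into about 11 µL; a reference agonist was the positive control; negative values mostly stem from fluorescent compounds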
UCH37 inh = blocks the human deubiquitinase UCH37 | Q9Y5K5 | purified proteasome/UCH37, Ub-AMC cleavage fluorescence | inhibition, % (concentration not given with the values) | actives 0.33% (n = 330,000) | AID 588478;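 active means mean of two replicates above 20%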;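 further: 0% = compound-free wells with enzyme and 100% = wells lacking proteasome; stock transfer was 100 nL into about 20 µL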
Target sequence (Q9Y5K5 whole entry, looked up): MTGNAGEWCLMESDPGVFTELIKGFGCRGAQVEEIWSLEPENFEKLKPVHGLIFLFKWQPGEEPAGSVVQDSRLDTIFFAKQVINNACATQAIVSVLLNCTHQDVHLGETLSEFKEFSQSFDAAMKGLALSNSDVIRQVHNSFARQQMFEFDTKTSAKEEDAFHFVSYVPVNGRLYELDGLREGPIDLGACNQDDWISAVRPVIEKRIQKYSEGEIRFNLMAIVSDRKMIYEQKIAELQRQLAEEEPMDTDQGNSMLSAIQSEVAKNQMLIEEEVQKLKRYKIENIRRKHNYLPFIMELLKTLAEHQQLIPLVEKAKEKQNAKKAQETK
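Reagent: Ub-AMC substrate; assay system: Proteasome-associated human UCH37 deubiquitinase; controls: no-proteasome and no-compound wells; read-out: % inhibition of Ub-AMC cleavage fluorescence; timing: 30 min preincubation with enzyme, 25 min cleavage at room temperature; signal: AMC fluorescence from Ub-AMC cleavage, excitation 355 nm, emission 460 nm; buffer or medium: Tris-HCl pH 7.4 plus ovalbumin, ATP-MgCl2, DTT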
ALR inh = human ALR oxidase inhibition via reduced H2O2; P55789; purified ALR, DTT oxidation, H2O2 HRP-luminol luminescence; inhibition, % (test concentration not listed); actives 3.8% (n = 290,000); AID 485317;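 active means mean and each replicate at 75% or more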;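 further: stock transfer was 7.5 nL into about 7.5 µL; 0% = neutral wells and 100% = wells with inactivated enzyme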
rRNA inh HTS OD600 = further read-out of rRNA inh HTS, marked with its call; OD600 change, %; measured here: OD600 growth;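 optical density of the mix in the first replicate; 0 = DMSO median and -100 = no signal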
rRNA inh HTS RFP = recorded beside rRNA inh HTS, whose call it bears; RFP signal change, %; measured here: RFP humanized mutant strains;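 first replicate; 0 = DMSO median and -100 = no signal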
* hit, by the source's call; i = inactive; / = not tested or not shown; + = active, no number; & = joins results of further samples.

SMILES	FGF22 binding	Ecoli growth	HNF4A DNA FP	rRNA inh HTS	rRNA inh HTS OD600	rRNA inh HTS RFP	Beta2AR agonist	UCH37 inh	ALR inh
CCCCC(=O)NNC(=S)NC(=O)CCC	/	0.62	1.9	/	/	/	3	-2.8	21
CCOc1ccc(CCN2C(=O)c3cccnc3C2=O)cc1OCC	i	0.69	-5.0	12	9	2.7	-2	1.1	-10
COCCCNC(=O)CCCn1c(=O)c2ccccc2n(CC(=O)Nc2c(C)cccc2C)c1=O	/	0.72	1.4	/	/	/	-3	0.4	-1
CN1C(=O)NC(=O)C1c1ccccc1 (configuration not stated)	i	0.68	-2.0	5	5	-4.6	0	-1.4	/
Cc1cccc(NC(=O)c2onc3c2CCCC3)n1	i	0.65	-3.8	9	3	-0.1	-9	0.3	2
O=C(Cc1cccs1)NCc1ccc2c(c1)OCO2	/	0.68	0.8	/	/	/	8	2.2	/
COc1ccc(C(=O)c2c3ccc(C(F)(F)F)cc3[n+]([O-])n2CCCN)cc1	i	0.62	0.7	2	-5	0.4	-4	3.3	14
COc1cccc(Nc2nc(C(C)N)cs2)n1 (configuration not stated)	i	/	-3.4	12	11	-0.3	/	/	/
O=C(CCN1C(=O)c2ccc([N+](=O)[O-])cc2C1=O)Nc1ccccc1C(=O)O	i	0.68	-2.8	11	13	-1.8	1	-0.3	/
O=C(CNC(=O)c1ccc(S(=O)(=O)N2CCCC2)cc1)N/N=C/c1ccc(F)cc1	+	/	1.0	10	14	1.6	9	/	1
COc1ccc(C(=O)Nc2ccc(N3CCN(C(=O)c4cccs4)CC3)cc2)cc1Br	i	0.71	2.7	-2	-2	-2.5	15	-14	-19
CCOC(=O)/C=C1\SCC(=O)N1CC(=O)NC12CC3CC(CC(C3)C1)C2	/	0.71	3.0	/	/	/	4	3.8	-13
O=C(Nc1ccc(Cl)c(Cl)c1)OCc1cncs1	/	0.71	-1.1	/	/	/	6	-0.1	4
COc1ccc(OC)c(C2N(c3cc(C)on3)C(=O)C3CCCN32)c1 (configuration not stated)	/	0.69	-4.3	/	/	/	-1	-1.6	-22
Cc1cc([N+](=O)[O-])ccc1-c1ccc(/C=N/NC(=O)Cc2ccccc2)o1	i	/	-25	/	/	/	12	/	/
COC(=O)CC1(c2ccccc2)C(=O)c2ccccc2C1=O	i	0.67	1.0	-17	-27	-5.0	7	0.5	-34
COc1ccc(OC)c(C(c2nnnn2CCC(C)C)N2CCN(C(=O)c3ccco3)CC2)c1 (configuration not stated)	/	0.71	-1.3	/	/	/	0	1.6	-30
COc1ccc(CNC(=O)Cn2nc([N+](=O)[O-])c(Br)c2C)cc1OC	i	0.68	1.9	7	18	-0.7	-12	2.8	-7
CCOc1ccc(S(=O)(=O)NCCC(=O)N(C)Cc2ccc(C)o2)cc1	i	0.68	1.5	1	6	3.4	-1	4.6	7
CC(C)COC(=O)CCn1[nH]c(=O)c2ccccc2c1=O	/	0.66	2.1	/	/	/	-4	-0.8	-12
O=C(C1CCN(Cc2ccc(Cl)cc2)CC1)N1CCN(Cc2ccc3c(c2)OCO3)CC1	i	0.65	-4.2	14	8	0.8	2	4.1	-3
COc1cc(CNC(C)(C)CO)cc(Br)c1OCc1ccccc1	i	0.68	-3.2	5	-4	1.9	12	4.2	-2
COc1ccccc1NC(=O)C(CC=C(Cl)Cl)C(C)=O (configuration not stated)	/	0.74	1.0	/	/	/	-1	1.0	18
COc1cc(Br)c(CN2C(=O)NC3(CCCCCC3)C2=O)cc1OC	i	0.64	1.0	-11	-13	2.8	-2	6.6	2
CCNc1nc(Oc2ccc(F)cc2)cc(C(F)(F)F)n1	i	0.66	-1.9	9	9	-1.4	-3	4.0	-39
Next section:
SMILES	FGF22 binding	Ecoli growth	HNF4A DNA FP	rRNA inh HTS	rRNA inh HTS OD600	rRNA inh HTS RFP	Beta2AR agonist	UCH37 inh	ALR inh
COc1ccc(NC(=S)NNC(=O)Cn2nc([N+](=O)[O-])cc2C)cc1	/	0.7	0.0	/	/	/	7	0.8	81*
CC(=O)N1CCN(C2c3cccc4cccc(c34)C2NS(=O)(=O)c2ccccc2)CC1 (configuration not stated)	/	0.71	-0.2	/	/	/	6	-0.1	-5
COc1ccc(N2CCN(C(=O)c3ccc(C(C)(C)C)cc3)CC2)cc1	/	0.77	-1.8	/	/	/	10	1.4	-7
C=CCN1C(=O)/C(=C/c2ccc(-c3ccc(F)cc3)o2)SC1=S	i	/	3.9	-12	3	34	-143	5.3	-5
O=C(CSc1nnnn1-c1cccnc1)Nc1ccc(OCc2ccccc2)cc1	/	0.6	-0.1	/	/	/	-16	3.8	3
Cc1nc2ccc(NC(=O)CS(=O)(=O)c3ccccc3)cc2s1	i	0.63	-0.7	-6	-8	-3.6	-10	1.5	-12
O=C(/C=C/c1cccc([N+](=O)[O-])c1)NC(=S)Nc1cccc(NC(=O)c2ccccc2Cl)c1	/	0.79	-2.4	/	/	/	2	6.2	0
O=[N+]([O-])c1c(Nc2ccccc2)ccc2nonc12	/	0.66	1.2	/	/	/	-8	1.7	/
Cc1c(NC(=O)CSCc2ccc(Br)cc2)c(=O)n(-c2ccccc2)n1C	i	0.67	6.5	9	6	-0.8	-10	0.4	/
N#Cc1ccccc1CSc1ncccc1C(=O)O	i	0.72	-3.0	-28	-59	1.2	2	2.1	-9
Cc1cc(C)c(S(N)(=O)=O)c(C)c1N(C)S(=O)(=O)c1ccccc1	i	0.71	1.3	-10	-6	-5.4	-2	1.4	-6
COc1cc(CN(C)CCc2ccccn2)cc(OC)c1OC	/	0.81	1.8	/	/	/	-4	1.5	-4
Cc1cc(OC(C)C(=O)N(Cc2ccco2)C2CCS(=O)(=O)C2)ccc1Cl (configuration not stated)	/	0.65	1.4	/	/	/	-1	5.5	0
Cc1cc2c(cc1C)CN(c1ccccc1)C2	i	0.65	1.6	-4	4	-0.6	7	7.5	15
O=C(CSc1nnc(-c2ccc(O)cc2)n1-c1ccccc1)CC(=O)Nc1ccccc1	/	0.69	-4.7	/	/	/	0	1.1	-8
Cc1ccc(NC(=O)c2cc3c(CO)cnc(C)c3oc2=Nc2cccc(C(N)=O)c2)cc1	i	0.7	3.9	1	14	-1.5	-14	0.6	-9
CCOC(=O)c1ccc(-n2c(CN3CCC(O)CC3)nc3ccc([N+](=O)[O-])cc3c2=O)cc1	i	0.69	11	1	-6	-3.2	2	7.0	/
Cc1ccc(S(=O)(=O)N(C)CC(=O)NC2CC(C)(C)NC(C)(C)C2)cc1	/	0.66	3.0	/	/	/	5	0.5	/
CCOc1ccc(C(=O)OCc2nnc(-c3cccs3)o2)cc1OC	/	0.64	0.9	/	/	/	-2	1.9	-16
CCC1Oc2ccccc2N(CC(=O)N2CCOCC2)C1=O (configuration not stated)	i	0.69	4.2	4	5	-2.1	-1	6.4	-5
CCc1ccc(NC(=O)C2CCN(S(=O)(=O)c3c(C)[nH]c(=O)[nH]c3=O)CC2)cc1	i	0.65	0.9	17	8	5.9	3	1.1	-2
O=C(C1CCCN(S(=O)(=O)c2cc(Cl)ccc2Cl)C1)N1CCOCC1 (configuration not stated)	i	0.72	1.4	-2	0	5.5	-20	4.9	0
NC(=O)C1(NC2CCCCC2)CCN(Cc2ccccc2)CC1	/	0.64	2.2	13	18	3.6	-8	1.4	/
CNC(=O)NC(=O)C(OC(=O)CCNS(=O)(=O)c1ccccc1)c1ccccc1 (configuration not stated)	i	0.71	0.1	0	1	-1.4	8	1.6	1
CCOC(=O)N1CCN(C(=O)C2CCN(S(=O)(=O)c3ccc(OCC)cc3)CC2)CC1	i	0.73	0.5	0	0	1.6	2	0.4	-3

Compound profiles (already shown). Values in the order: FGF22 binding | Ecoli growth | HNF4A DNA FP | rRNA inh HTS | rRNA inh HTS OD600 | rRNA inh HTS RFP | Beta2AR agonist | UCH37 inh | ALR inh
CCC1Oc2ccccc2N(CC(=O)N2CCOCC2)C1=O (configuration not stated) is listed as i | 0.69 | 4.2 | 4 | 5 | -2.1 | -1 | 6.4 | -5
CCOC(=O)N1CCN(C(=O)C2CCN(S(=O)(=O)c3ccc(OCC)cc3)CC2)CC1 is listed as i | 0.73 | 0.5 | 0 | 0 | 1.6 | 2 | 0.4 | -3
O=C(CSc1nnc(-c2ccc(O)cc2)n1-c1ccccc1)CC(=O)Nc1ccccc1 is listed as / | 0.69 | -4.7 | / | / | / | 0 | 1.1 | -8

(next part)
SMILES	FGF22 binding	Ecoli growth	HNF4A DNA FP	rRNA inh HTS	rRNA inh HTS OD600	rRNA inh HTS RFP	Beta2AR agonist	UCH37 inh	ALR inh
CCOC(=O)C1(Cc2ccccc2)CCN(Cc2cnn(-c3ccccc3)c2)CC1	i	0.63	1.0	-28	-49	27	-12	2.6	2
O=C(NCC1CCCO1)c1cccc(NS(=O)(=O)c2ccccc2)c1 (configuration not stated)	/	0.65	1.3	10	13	-0.2	6	1.0	2
CC1CCCCN1CCCNC(=O)C1CCCN(c2ncnc3c2nc2n3CCCCC2)C1 (configuration not stated)	i	0.68	-1.4	1	10	-2.7	-12	-0.1	3
CCCCN=C1NN=C(c2ccc3c(c2)OCCO3)CS1	i	0.63	3.2	-8	-8	-0.9	4	4.0	34
O=C(CSc1ccccn1)Nc1nncs1	/	0.66	3.0	/	/	/	2	2.3	-16
CCN(C(=O)COC(=O)c1ccc2c(c1)OCO2)c1ccc(F)cc1	i	0.67	2.5	-7	0	3.5	-6	2.6	-11
COc1ccccc1NC(=O)c1ccc2c(=O)n3c(nc2c1)CCC3	i	0.69	-0.3	0	0	-2.0	-10	1.9	/
CSc1ccc(NC(=O)/C=C/C(=O)O)cc1	i	0.56	-3.5	-5	-5	-3.5	34	6.0	0
CCOC(=O)c1sc(NC(=O)c2cccnc2)c(C#N)c1C	/	0.67	5.1	-1	-10	-3.8	4	5.3	42
C[C@@H]1CN([C@H](C)CO)C(=O)CCCn2cc(nn2)CO[C@H]1CN(C)C(=O)CCC(F)(F)F	i	/	2.8	15&3	21&3	0.8&-0.9	/	/	/
COC(=O)C(Cc1c[nH]c2ccccc12)NC(C)=O (configuration not stated)	/	0.74	-0.1	/	/	/	-7	3.4	-3
OC1(c2ccccc2F)CCN(Cc2nnnn2CCc2ccccc2)CC1	/	0.66	0.9	/	/	/	-16	-3.0	-3
CN(C)S(=O)(=O)c1cccc(NC(=O)c2ccc(NS(=O)(=O)c3cccs3)cc2)c1	i	0.7	-2.4	-32	-29	-4.9	-16	1.8	6
COC(=O)c1sc(N)c(C(=O)OC)c1COC(=O)C12CC3CC(CC(O)(C3)C1)C2	i	0.69	3.2	5	-9	3.2	-2	3.3	0
O=C(Nc1cccc(OC(=O)c2ccc(Br)o2)c1)c1ccccc1	i	0.66	0.6	-19	-9	-0.6	-7	1.3	1
O=C(Cc1ccc(Cl)cc1)Nc1cccnc1	i	0.68	-2.0	-3	3	-7.7	12	1.4	-6
Cc1ccc(-c2cc(C(=O)N/N=C/C=C/c3ccccc3)n[nH]2)o1	i	/	1.4	-13	7	-1.9	1	/	-8
Cc1ccc(NC(=O)c2cccc(S(=O)(=O)N3CCCC3)c2)nc1	i	0.62	-2.3	4	0	-1.3	-3	3.0	2
COC(=O)c1ccc(CN2C(=O)NC3(CCCCC3)C2=O)cc1	i	0.7	2.7	7	4	0.7	-3	-3.3	-4
CCOC(=O)c1[nH]c2ccc(OC)cc2c1NC(=O)OC	/	0.75	3.0	/	/	/	-1	-20	-3
COc1ccc2nc(SCC(=O)Nc3ccc4sc(C)nc4c3)c(C#N)cc2c1	/	0.67	3.9	/	/	/	-15	-2.7	-19
O=C(CN(C(=O)c1csnn1)c1cccc(C(F)(F)F)c1)NCCc1ccccc1	i	0.64	-0.7	3	4	1.2	-2	1.2	0

This is a subset; the hit share may differ from the screen's.
